Calb FLC – C. albicans growth modulation with fluconazole. AID 1979. growth inhibition, % (concentration not given with the values). C. albicans CaCi-2 (fluconazole-resistant clinical isolate) + fluconazole, Alamar Blue growth, 48 h. 0.57% of 300,000 active;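 active = most replicates above 75%; inconclusive = exactly half above 75%; inactive = most below 75%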;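 note: all wells also contain fluconazole at 8 µg/ml as a sub-toxic cotreatment; 0% = median of DMSO wells and 100% = median of geldanamycin control wells; wells of about 8 µL received 7.5 nL stock; the first replicate is given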
UCH37 DUB inh – blocks the human deubiquitinase UCH37; Q9Y5K5; 0.33% of 330,000 active; purified proteasome/UCH37, Ub-AMC cleavage fluorescence; AID 588478; inhibition, % (concentration not given with the values);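 active = mean of two replicates above 20%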;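 note: 0% = compound-free wells with enzyme and 100% = wells lacking proteasome; stock transfer was 100 nL into about 20 µL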
Target sequence (Q9Y5K5 whole entry, looked up): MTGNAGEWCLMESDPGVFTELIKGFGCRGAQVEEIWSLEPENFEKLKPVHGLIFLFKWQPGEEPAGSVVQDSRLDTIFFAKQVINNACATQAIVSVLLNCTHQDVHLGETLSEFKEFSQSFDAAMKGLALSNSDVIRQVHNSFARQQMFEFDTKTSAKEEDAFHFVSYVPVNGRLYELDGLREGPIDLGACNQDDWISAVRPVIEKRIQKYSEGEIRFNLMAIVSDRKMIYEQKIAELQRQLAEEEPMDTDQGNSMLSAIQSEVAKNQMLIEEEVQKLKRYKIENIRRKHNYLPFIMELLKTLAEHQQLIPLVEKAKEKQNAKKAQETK
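Signal – fluorescence, ex 355 nm, em 460 nm · System – Proteasome-bound UCH37 · Input – 0.15 nM proteasome as dispensed · Timing – 30 min preincubation with enzyme, 25 min cleavage at room temperature · Read-out basis – percent inhibition of cleavage signal versus uninhibited and no-proteasome wells · Medium – Tris-HCl pH 7.4 with ATP-MgCl2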
T cruzi repl – T. cruzi replication inhibition | T. cruzi beta-gal in NIH3T3, luminescence, 90 h | inhibition, % (concentration not given with the values) | 1.4% of 300,000 active | AID 1885;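 active = mean inhibition across valid replicates above about 55%, limit read from the data; inconclusive = mean below that limit but half or more replicates reach it; inactive = mean below it, under half of replicates reach it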;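 note: signal also drops with host cell toxicity which is not excluded here; 0% = plate median of DMSO wells and 100% = zero luminescence signal; higher percent means less beta-gal luminescence so fewer parasites; stock transfer was 50 nL into about 50 µL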
B2AR ag – activates human beta-2 adrenergic receptor causing internalization | Am2.2-beta2AR cells, FAP receptor internalization, flow cytometry; reference of the scale not given here | 0.43% of 340,000 active | P07550 | response, % (concentration not given with the values);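 active = response above a set limit, near 3 SD of response in nonfluorescent compounds, cut at about 42% in these data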;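 note: stock transfer was 100 nL into about 11 µL; a reference agonist was the positive control; negative values mostly stem from fluorescent compounds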
Target sequence (P07550 whole entry, looked up): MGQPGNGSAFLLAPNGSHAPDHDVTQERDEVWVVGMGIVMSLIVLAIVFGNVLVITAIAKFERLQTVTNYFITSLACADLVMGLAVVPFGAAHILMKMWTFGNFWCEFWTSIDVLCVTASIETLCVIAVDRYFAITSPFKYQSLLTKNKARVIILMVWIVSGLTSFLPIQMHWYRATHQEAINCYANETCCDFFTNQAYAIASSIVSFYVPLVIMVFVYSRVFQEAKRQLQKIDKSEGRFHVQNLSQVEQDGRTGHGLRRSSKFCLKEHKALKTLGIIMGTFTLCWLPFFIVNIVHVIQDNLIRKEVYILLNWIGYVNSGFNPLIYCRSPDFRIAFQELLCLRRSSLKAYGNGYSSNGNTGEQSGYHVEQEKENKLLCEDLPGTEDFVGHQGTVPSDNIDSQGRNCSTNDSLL
LANA-H2B inh – blocks KSHV LANA binding to histone H2A/H2B. Q9QR71. cell-free LANA-H2A/H2B peptide, fluorescence polarization. inhibition, % (concentration not given with the values). 0.6% of 320,000 active. AID 2629; in the data active = inhibition mostly above about 10%, no sharp cut-off; inactive = mostly below about 6.7%;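 note: stock transfer was 7.5 nL into about 10 µL; 0% = median of vehicle wells and 100% = median of positive control wells; one replicate is shown; the record names a cut of 25% in any replicate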
RanGTP-Impb inh – disruptors of Ran-importin-beta complex formation – biochemical, FRET, CFP-Ran, YFP-importin-beta, homogeneous, primary screen; cell-free CFP-Ran/YFP-importin-beta FRET ratio; inhibition, % (test concentration not listed); 1.1% of 300,000 active; AID 2216;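 active = most replicates above 15%; inconclusive = exactly half above 15%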;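 note: 0% = DMSO wells and 100% = Ran loaded with GDP instead of GTP; wells of about 40 µL received 100 nL stock; the first replicate is given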
A1 inh – inhibitors of the anti-apoptotic protein A1, read as caspase activation | caspase activation, % (concentration not given with the values) | 0.066% of 330,000 active | MEF A1-2A-BIM cells, Caspase-Glo 3/7 luminescence, 3 h; percent of clofoctol response, vehicle zero;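 active = over half of replicate activation scores above 10%, or exactly half above 10 with the replicate mean above 10; inconclusive = replicate mean below 10 yet half the replicates above 10; inactive = over half of replicates below 10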;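 note: wells of about 30 µL received 50 nL stock; many hits fall short of the cut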
Beta cell apopt – beta cell apoptosis inhibition; INS-1E cytokine-induced death, ATP luminescence, 48 h; percent of positive-control rescue, neutral wells zero; protection from apoptosis, % (concentration not given with the values); 0.8% of 300,000 active; AID 435005;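 active = all replicates at 75% or more, or half of them and the mean; inconclusive = half reach 75% but not the mean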;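 note: 0% = cytokine-treated negative control wells and 100% = positive control rescue; higher means more ATP so stronger rescue from cytokine killing; wells of about 40 µL received 100 nL stock; the first replicate is given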
* = called active by the depositor; ? = inconclusive; . = no result given.

SMILES	Calb FLC	UCH37 DUB inh	T cruzi repl	B2AR ag	LANA-H2B inh	RanGTP-Impb inh	A1 inh	Beta cell apopt
CCC1CC(CSc2ncn[nH]2)OC1=O (configuration not stated)	-9	1.2	-2	2	3.0	-2.8	-0.8	-2
Cc1ccc2nc(N3CCCCC3)c(C=O)c(=O)n2c1	1	6.5	-8	.	0.9	-1.3	0.0	4
CCOC(=O)/C(C#N)=C\c1ccco1	-4	15	-12	-1	-1.9	1.4	0.5	-4
CCCCn1c(N)c(N(CCC(C)C)C(=O)C2CCCO2)c(=O)[nH]c1=O (configuration not stated)	1	2.1	-5	.	-2.8	0.3	0.1	-3
O[C@@H]1COC(Nc2ccc(N=Nc3ccccc3)cc2)C[C@@H]1O (some centres not stated)	0	14	1	.	1.2	0.3	-3.0	-7
O=[N+]([O-])c1cc(C(F)(F)F)cc([N+](=O)[O-])c1Sc1n[nH]c(C(F)(F)F)n1	32	6.9	5	-5	-1.8	3.5	1.0	-4
CCOC(=O)c1cnc(-n2nc(C)cc2C)nc1NNc1ncc(-c2ccccc2)cn1	6	4.3	15	.	1.4	-1.9	0.0	96*
O=C1NC[C@H](c2ccccc2)OC(=O)[C@@H](Cc2ccc(F)cc2)CC/C=C/C[C@H]1CC(=O)N(CCO)Cc1ccccc1	.	2.0	.	17	-2.3	.	0.2	4
Cc1ccc(NC(=O)C(=O)NCc2ccccn2)cc1	-12	4.5	-4	0	-0.9	0.9	-1.4	1
Cc1cc(=O)[nH]c(SCC(=O)NC2CCCc3ccccc32)n1 (configuration not stated)	-5	2.4	-12	4	-7.1	-2.9	0.8	-11

Molecules from the list above that have fluorine (2):
SMILES	Calb FLC	UCH37 DUB inh	T cruzi repl	B2AR ag	LANA-H2B inh	RanGTP-Impb inh	A1 inh	Beta cell apopt
O=[N+]([O-])c1cc(C(F)(F)F)cc([N+](=O)[O-])c1Sc1n[nH]c(C(F)(F)F)n1	32	6.9	5	-5	-1.8	3.5	1.0	-4
O=C1NC[C@H](c2ccccc2)OC(=O)[C@@H](Cc2ccc(F)cc2)CC/C=C/C[C@H]1CC(=O)N(CCO)Cc1ccccc1	.	2.0	.	17	-2.3	.	0.2	4

(list continues)
SMILES	Calb FLC	UCH37 DUB inh	T cruzi repl	B2AR ag	LANA-H2B inh	RanGTP-Impb inh	A1 inh	Beta cell apopt
COc1ccc(Cl)cc1NC(=O)CSc1nc(NS(=O)(=O)c2ccccc2)cc(=O)[nH]1	6	4.8	12	4	.	5.5	.	.
O=C(COC(=O)c1cc(Cl)ccc1Cl)NCCN1C(=O)CSC1=O	-14	2.9	-12	-5	1.7	-3.4	-1.0	2
COc1ccc(C(=O)/C=C/C(=O)N(Cc2ccc3c(c2)OCO3)C(C(=O)NC2CCCCC2)c2ccncc2)c(O)c1 (configuration not stated)	-14	2.1	5	3	-1.5	0.1	0.2	10
CCN(CC)c1ccc(NC(=O)CN2C(=O)CC(C)(C)S(=O)(=O)c3ccccc32)c(C)c1	-2	4.7	-1	-2	0.8	2.4	1.1	.
CCCCOC(=O)c1ccc(NC(=O)c2cnc3n(c2=O)CCS3)cc1	-11	-30	6	-9	-0.6	4.6	-2.6	24
O=C(CSC1=NS(=O)(=O)c2cc(Cl)ccc2N1)NCc1ccc(F)cc1	5	8.3	4	-5	12	-1.5	-0.3	.
Cc1coc2c(C)c3oc(=O)c(CCC(=O)N(C)CC(=O)O)c(C)c3cc12	22	-64	-3	-21	1.6	-4.4	-0.8	-6
N=c1oc2ccccc2cc1C(=O)Nc1ccc(F)cc1	4	1.9	-14	1	2.1	-2.8	-9.3	1
COc1cccc(-c2cc(C(=O)N3N=C(C)CC3(O)C(F)F)c3ccccc3n2)c1 (configuration not stated)	5	1.2	-5	24	-1.6	6.1	-0.8	-2
Cc1ccc(S(=O)(=O)NCCCNS(=O)(=O)c2ccccc2)cc1	3	-0.4	-14	-7	-1.5	8.6	0.9	.
O=C(c1ccc2c(c1)OCO2)C1CCCN(Cc2ccc3cccc(F)c3n2)C1 (configuration not stated)	-15	2.0	18	3	-8.5	3.5	-0.2	4
CCOC(=O)c1sc(C)c2c(=O)n(CC(=O)c3ccc(Br)cc3)nnc12	-1	2.7	17	21	-0.5	-1.1	0.4	-4
CCOC(=O)C1CCCCN1Cc1cn[nH]c1-c1ccc(F)cc1F (configuration not stated)	-16	2.0	0	-7	-2.1	?	0.2	-6
O=C1C2C3C=CC(C3)C2C(=O)N1c1nccs1 (configuration not stated)	0	4.6	-12	4	2.5	0.3	0.3	0
Cc1ccc(NC(=O)CSc2nnc(Cc3cccn3C)n2-c2ccc(F)cc2)cc1	-14	1.1	7	-1	1.6	6.1	0.6	-5
O=C(CN1CCN(c2ccc(F)cc2)CC1)N1N=CCC1c1ccccc1 (configuration not stated)	-3	1.8	5	-1	-2.1	-0.5	0.0	-8
O=C(c1cc(C2CC2)nn1-c1ccccc1)N1CCN(Cc2ccc(Cl)cc2)CC1	.	0.4	.	3	-0.7	.	-1.8	2
CN(C(=O)COC(=O)C1CCN(S(=O)(=O)c2cccs2)CC1)c1ccccc1	-20	0.2	-6	-1	-3.2	-0.7	0.3	1
O=C1CC(c2cccc(F)c2)c2c(c3ccccc3[nH]c2=O)O1 (configuration not stated)	-7	-3.5	-20	-4	-0.7	-0.7	2.8	-3
OC(CNCc1ccccc1Cl)C(F)(F)F (configuration not stated)	-11	6.6	-7	-2	2.4	1.6	0.4	-3
COc1cccc(CNS(=O)(=O)c2c(C)nc3scc(C)n3c2=O)c1	3	-88	-11	2	0.6	2.5	0.0	-4
O=C(CCNC(=O)N1CCn2c1nc1ccccc12)NCc1ccc(F)cc1	9	0.6	-10	1	5.7	-0.3	0.8	-4
CN(C)C(=O)c1ccccc1Sc1cc(Cl)ccc1Cl	31	1.5	-6	1	2.3	-2.5	0.0	-2
CCc1ccc(NC(=O)C(C)OC(=O)C2CCN(c3ccc(C(F)(F)F)cn3)CC2)cc1 (configuration not stated)	-1	2.9	5	0	-1.0	0.1	-0.9	-1
CN(Cc1cnn(C)c1)Cc1nc(C(c2ccccc2)c2ccccc2)no1	5	-1.2	0	0	2.3	3.2	-0.3	-8
O=C(CCCc1c[nH]c2ccccc12)Nc1ncccc1O	-2	2.8	20	-7	-3.8	-2.2	0.0	2
FC(F)(F)c1cnc(NNC(=S)Nc2ccc(Cl)cc2)c(Cl)c1	2	2.7	-5	9	-1.6	1.1	-0.7	93*
COc1ccc(N2CCN(C(CNS(=O)(=O)c3ccccc3)c3ccccc3)CC2)cc1 (configuration not stated)	-13	2.0	-1	5	-0.2	-1.4	-0.3	-1
O=S(=O)(N/N=C/c1ccc2c(c1)OCCO2)c1ccccc1	?	.	-5	1	1.4	2.6	-0.4	-2
CCOC(Cn1c(CCCO)nc2ccccc21)OCC	-4	0.5	-19	4	-0.6	0.2	0.5	-8
CCN=c1scc(C)n1/N=C/c1cc(Br)c(O)c(OC)c1	14	.	-21	2	3.8	-2.0	-1.6	3
CC(C)CC1NC(=O)N(CC(=O)c2ccc3c(c2)OCCO3)C1=O (configuration not stated)	2	4.0	1	0	1.8	-0.9	-0.9	.
CC1CCc2nc(NC(=O)c3ccc(S(=O)(=O)N4CCCc5ccccc54)cc3)sc2C1 (configuration not stated)	4	-3.6	61*	8	-5.4	2.4	-0.6	18
CC(Oc1cc2oc(=O)c3c(c2cc1Cl)CCCC3)C(=O)NCc1ccccn1 (configuration not stated)	-6	-21	11	-24	1.3	-0.3	-0.5	10
CCc1nc2sc3c(c2c(=O)n1N)CC(C)(C)OC3	-3	1.4	-4	-1	-4.2	?	1.1	-10
Cc1cccc(NC(=O)CCc2c(C)nc3ncnn3c2C)n1	7	-0.1	-11	1	-2.9	0.8	-0.7	-4
CC(C)Cn1c(-c2ccccc2F)n[nH]c1=S	12	-2.7	5	6	-3.2	1.6	-0.1	-1
O=S1(=O)CCN(Cc2csc(-c3cccs3)n2)CC1	4	3.5	7	-5	2.5	1.5	-5.9	2
O=c1c([N+](=O)[O-])c(N2CCCCCC2)c2ccccc2n1-c1ccccc1	6	0.9	11	-2	1.1	-1.4	0.5	-1
CCn1c(C)c(C)c2cc(C(=O)NCCN3CCOCC3)ccc21	-8	-2.4	-10	9	-4.6	7.6	0.4	-4
CCCCN(C(=O)CN1C(=O)C2CC=CCC2C1=O)c1c(N)n(CCC)c(=O)[nH]c1=O (configuration not stated)	-5	0.0	-23	-1	-5.1	-0.2	-0.1	3
Cc1cc(C)n2nc(SCC(=O)c3ccc[nH]3)nc2n1	-4	5.1	8	-9	-1.3	2.9	0.0	-13
CCn1nnc(NC(=O)COc2ccc([N+](=O)[O-])cc2)n1	-4	5.5	14	3	0.0	6.3	0.6	-3
Cc1cc(F)ccc1S(=O)(=O)N1CCCOC1CNC(=O)C(=O)NCc1ccc2c(c1)OCO2 (configuration not stated)	-4	2.3	4	-5	2.1	-2.4	0.3	-2
N#C/C(=C\c1ccccc1[N+](=O)[O-])C(=O)Nc1ccc(S(N)(=O)=O)cc1	4	2.3	-8	11	2.2	-4.1	0.4	5
CCN(CC)C(=O)Cn1cc(S(=O)(=O)CC(=O)N2CCCCCC2)c2ccccc21	-7	1.6	-20	7	3.0	3.3	0.2	-6
COc1ccc(NS(=O)(=O)c2ccc(OC)c(NC(=O)CCC3CCCC3)c2)cc1	1	0.9	-5	8	-0.8	8.1	-0.4	2
CCOc1cccc2c1OC1(C)CC2NC(=O)N1c1cccc(F)c1 (configuration not stated)	-14	2.4	-5	5	-2.6	0.7	0.9	-2
COc1ccccc1N1CCN(C(C)C(=O)Nc2ccc(S(=O)(=O)N3CCOCC3)cc2)CC1 (configuration not stated)	2	2.1	6	-5	5.5	1.1	0.1	8
O=C(O)c1cc(NC(=O)c2ccc(Br)cc2)cc(NC(=O)c2ccc(Br)cc2)c1	-1	0.2	-3	-12	2.2	-3.0	-3.0	-3

Further records
SMILES	Calb FLC	UCH37 DUB inh	T cruzi repl	B2AR ag	LANA-H2B inh	RanGTP-Impb inh	A1 inh	Beta cell apopt
CCc1cc2c(=O)c(-c3cnn(-c4ccccc4)c3)c(C(F)(F)F)oc2c(CN(C)C)c1O	11	-31	18	-7	-0.5	-1.3	1.7	3
O=[N+]([O-])c1ccc(-c2nc(=S)c3c(o2)CCCC3)cc1	-2	7.3	-12	-9	-2.7	0.6	0.1	-6
COc1ccc(C(=O)N/N=C/c2c(CO)cnc(C)c2O)cc1	2	.	-12	-2	-0.8	22*	1.5	-8
O=C(Nc1ccccc1C(=O)NCc1cccnc1)c1ccccc1F	.	3.8	0	2	0.8	.	0.1	-4
O=C(CSc1nnc(-c2cccnc2)n1CCc1ccccc1)NCc1ccccc1	?	-2.8	-9	-4	-1.6	-3.8	0.7	7
Cc1cc(=O)oc2cc(NC(=O)C(CCCN=C(N)N)NC(=O)OCc3ccccc3)ccc12 (configuration not stated)	6	-93	-12	-10	-2.8	2.4	1.3	-5
Cc1ccc(S(=O)(=O)NC(C(=O)OCC(=O)NC(=O)c2cccn2C)C(C)C)cc1 (configuration not stated)	7	0.0	6	-5	1.5	4.3	0.1	3
Cc1cccc(Cn2cc(/C=C/[N+](=O)[O-])c3ccccc32)c1	-5	-0.3	39	11	-0.8	-0.5	0.8	-1
CCC(Oc1ccccc1OC)C(=O)Nc1ccc2c(c1)OCO2 (configuration not stated)	6	5.2	7	-13	0.6	3.1	0.1	-2
